Assay outcomes deposited in PubChem BioAssay by National Center for Advancing Translational Sciences (NCATS).
gsp antag = gsp mutant antagonism | gsp-mutant cells, cAMP HTRF, 30 min; control for the full effect not named in the record | Potency, µM (top dose mostly 76.9 µM), for inactives: top-dose activity change, negative = inhibition, usual class: inhibitors | AID 624288 | hit rate 0.4% among 340,000; active = falling curve of any shape with a large fitted effect; inconclusive = falling curve, mostly with a smaller effect; inactive = flat or rising curve; cell line not stated here;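 further: intracellular cAMP measured with PDE inhibitor Ro 20-1724 present during compound exposure; potency means the concentration at half of the fitted maximal effect; on the % scale 0 is the no-effect control and ±100 the full control effect; nearly all actives have a fitted effect of over 65% in size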
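Cells, 2000/well, grown 16–24 h in DMEM 10% FBS with 0.5 mg/ml G418, then compounds plus […] (300 uM addition stock), 30 min at 37C. cAMP read by HTRF (cAMP-d2 and anti-cAMP antibody-K in lysis buffer) after 30 min RT.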
Sfp inh = inhibitors of Bacillus subtilis Sfp phosphopantetheinyl transferase. Biochemical Sfp PPTase activity, qHTS. Potency, µM, without a hit: max response, negative = inhibition, usual class: inhibitors. hit rate 3.5% among 310,000. AID 1490; active means well fitted inhibition curve with a large enough effect; inconclusive means small, poorly fitted or top-dose-only effect, or another doubt; inactive means no such curve, though single readings can be large or run the other way;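 further: the enzyme is Sfp with the accession as filed and its product quenches rhodamine fluorescence; potency means the concentration at half of the fitted maximal effect; 0% = enzyme reaction without inhibitor and -100% = no enzyme wells; top concentration of the series not given in the record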
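Compounds were incubated with enzyme (final 15 nM) for 15 min at room temperature before substrate addition started the reaction. Fluorescence at 525 nm excitation, 598 nm emission was recorded immediately and after 30 minutes.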
TRPV1 potentiator = enhances activation of the human vanilloid receptor TRPV1; hit rate 0.02% among 320,000; TRPV1-expressing cells, Fluo-8 calcium influx, capsaicin EC20 potentiation; host cell line not named in the record; control for the full effect not named in the record; Q8NER1; potentiation, % at 8.33 µM; active means potentiation above 80%; inconclusive means 30% to 80%; inactive means below 30%; further: 0% is about no effect
Target sequence (Q8NER1 whole entry, looked up): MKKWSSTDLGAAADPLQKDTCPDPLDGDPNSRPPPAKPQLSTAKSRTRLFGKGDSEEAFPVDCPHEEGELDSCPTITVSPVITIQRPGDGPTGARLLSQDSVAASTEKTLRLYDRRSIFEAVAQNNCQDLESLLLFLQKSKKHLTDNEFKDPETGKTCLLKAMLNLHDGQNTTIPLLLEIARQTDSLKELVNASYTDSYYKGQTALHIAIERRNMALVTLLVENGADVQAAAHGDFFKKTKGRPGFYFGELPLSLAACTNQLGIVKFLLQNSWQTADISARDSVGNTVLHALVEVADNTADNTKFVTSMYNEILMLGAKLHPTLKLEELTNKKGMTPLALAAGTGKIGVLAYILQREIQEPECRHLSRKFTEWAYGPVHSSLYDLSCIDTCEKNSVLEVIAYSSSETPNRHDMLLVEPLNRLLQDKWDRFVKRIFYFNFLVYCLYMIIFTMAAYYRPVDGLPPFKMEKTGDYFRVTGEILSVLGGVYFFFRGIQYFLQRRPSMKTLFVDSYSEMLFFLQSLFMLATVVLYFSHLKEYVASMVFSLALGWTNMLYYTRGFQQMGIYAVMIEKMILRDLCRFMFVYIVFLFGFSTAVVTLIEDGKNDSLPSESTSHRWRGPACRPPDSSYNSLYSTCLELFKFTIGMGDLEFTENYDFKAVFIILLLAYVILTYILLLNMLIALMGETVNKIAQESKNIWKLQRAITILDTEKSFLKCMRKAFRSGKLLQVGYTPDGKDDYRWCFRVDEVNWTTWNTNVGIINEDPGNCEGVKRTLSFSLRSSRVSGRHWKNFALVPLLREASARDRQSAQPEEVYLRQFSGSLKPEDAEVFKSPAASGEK
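Cells expressing TRPV1 were dye-loaded with Fluo-8 and read kinetically: 10 s baseline, 3 min after compound (agonist portion), then 2 min after EC20 capsaicin (allosteric enhancer portion). Calcium-bound dye fluorescence at 480/520 nm.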
CtBP-E1A inh = inhibitors of CtBP/E1A interaction; hit rate 0.49% among 340,000; activity change, % (concentration not given with the values); AlphaScreen GST-E1A/His-CtBP binding, 1536-well; active compounds read low; control for the full effect not named in the record; in the data active means activity change below about -65%; inconclusive means about -30% to -65%; inactive means above about -30%; further: on the % scale 0 is the no-effect control and ±100 the full control effect
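GST-E1A and His-tagged CtBP (125 nM each as 5X stock) were preincubated with pin-transferred compound for 2 h at 37 °C in the dark, then glutathione donor and nickel acceptor beads were added for 1 h before AlphaScreen reading.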
ClpP mod = qHTS Assay for Activators of ClpP; ATP-dependent Clp protease proteolytic subunit (Bacillus subtilis (strain 168)), P80244; purified B. subtilis ClpP, FRET peptide cleavage, 20 min; Potency, µM (highest dose often 57.5 µM), for the others: at the highest dose activity change, negative = active; hit rate 1.9% among 340,000; active = well fitted falling curve with a large enough effect; inconclusive = small, poorly fitted or top-dose-only effect; inactive = no such curve, though single readings can be large or run the other way; further: potency means the concentration at half of the fitted maximal effect; the source files actives as falling curves though it sought activators and does not explain the sign; nearly all actives have a fitted effect of over 65% in size; many hits overshoot -100%
Target sequence (P80244 whole entry, looked up): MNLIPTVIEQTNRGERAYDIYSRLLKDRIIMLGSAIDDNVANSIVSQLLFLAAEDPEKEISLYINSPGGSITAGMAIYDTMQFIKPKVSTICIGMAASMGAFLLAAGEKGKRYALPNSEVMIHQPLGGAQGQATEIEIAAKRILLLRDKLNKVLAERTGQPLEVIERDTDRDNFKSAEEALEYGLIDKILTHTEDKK
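Buffer: 100 mM Tris/HCl pH8, 100 mM KCl, 0.05% low protease BSA, 2.5% glycerol, 0.01% Tween-20. ClpP 10 microg/mL final; 20 min RT; delta FRET normalized to ADEP and DMSO controls.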
Menin-MLL FL inh = inhibitors of human menin-MLL interaction, wild-type MLL peptide; AID 1766; 290,000 tested, under 10 active; Fluorescence polarization, fluorescein-MLL peptide displacement from menin; FP activity change, % at 61.4 µM; inconclusive = falling polarisation curve, or a change in total fluorescence; inactive = total fluorescence flat and polarisation flat or rising; no compound was filed as active; the % refers to the polarisation; negative = inhibition;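 further: % of control where 0% means no effect; inhibitors lower the polarisation; unlabelled MLL peptide was the positive control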
gsp agonist = agonists of gsp mutant (McCune-Albright syndrome). Potency, µM (series often up to 76.9 µM), for inactives: at the top dose activation (cAMP increase), usual class: activators. gsp mutant cells, cAMP HTRF, 30 min; control for the full effect not named in the record. hit rate 0.13% among 340,000; active = well fitted activation curve with a large enough effect; inconclusive = small, poorly fitted or top-dose-only effect, or another doubt; inactive = no such curve, though single readings can be large or run the other way; cell line not stated here;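 further: phosphodiesterase inhibitor Ro 20-1724 added with compounds to block cAMP breakdown; potency means the concentration at half of the fitted maximal effect; nearly all actives have a fitted effect of over 60% in size; about a fifth of the inactives were tested at one dose only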
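Cells stably selected in G418 were plated at 2000/well, grown 16-24 hr, then given compounds in DMSO with the PDE inhibitor […] (300 uM solution added) for 30 min at 37C; cAMP was read by HTRF.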
Numbers without * were called inactive; ? = inconclusive; · = no result given; & = joins results of further samples; [ ] = dose if it differs, or a comment. Rows were taken by chance; about 5.3% have a hit in one of these screens.

Sequence of screens – gsp antag	Sfp inh	TRPV1 potentiator	CtBP-E1A inh	ClpP mod	Menin-MLL FL inh	gsp agonist
> Cc1ccccc1NC(=O)CN1C(=O)NC(C)(c2ccc3c(c2)OCO3)C1=O (stereo not given)
  4.2%	15.3%	15.0	-1.5	15.8µM*	-1.1	28.6%
> CCC(C(=O)NC1CCCC1)N(C(=O)c1snc(C(N)=O)c1N)c1ccc2c(c1)OCCO2 (stereo not given)
  3.2%	2.8%	25.8	3.5	-8.0%	0.0	?
> COc1ccc(CCNC(=O)c2csc3c2CCCC3)cc1
  -52.9%	11.6%	-1.1	-23.6	0.7%	-0.8	-6.2%[15.4 µM]
> COc1ccc(OC)c(NC(=O)C2CCN(S(=O)(=O)c3ccc4c(c3)CC(C)N4C(C)=O)CC2)c1 (stereo not given)
  ?	8.3%	6.0	-7.8	0.2%&0.8%	·	12.7%
> Cc1cccc(C)c1NC(=O)CNC(=O)COC(=O)c1ccc(Cl)s1
  13.0%	·	·	2.3	1.1%	·	8.3%
> Cc1ccc(-c2ccc(SCC(=O)c3ccccc3)nn2)cc1
  -20.4%	-10.7%	-13.5	-2.3	-2.1%	-0.7	1.7%
> COc1cc(C(=O)Nc2ccc(C(F)(F)F)cc2)ccc1OCC(=O)N1CCOCC1
  -13.3%	·	-13.3	11.1	·	·	10.0%[15.4 µM]
> CC1(C)C2([N+](=O)[O-])CN3CC1([N+](=O)[O-])CN(C2)C3c1ccccc1 (stereo not given)
  -0.9%	16.4%	13.0	5.0	-1.0%	-1.1	?
> CC1CN(CCC(=O)Nc2ccc3c(c2)CCC3)CC(C)O1 (stereo not given)
  -4.7%	5.3%	15.4	13.7	-0.2%	0.4	-16.0%
> COCCCNC(=S)NNC(=S)Nc1ccc(OC)cc1
  -13.2%	50.1µM*	0.8	·	1.5%	2.8	-48.6%[inhibitor]
> Cc1scc(C(=O)NNC(=S)NCC2CCCO2)c1C (stereo not given)
  12.6%	8.6%	-11.5	7.3	-1.4%	0.1	8.2%
> O=C(Nn1cnc2ccccc2c1=O)c1c(F)cccc1F
  -8.5%	13.1%	-2.6	·	-3.5%	1.5	-4.7%
> CCCCOC(=O)c1ccc(NC(=O)Nc2ccc(OC)c(OC)c2)cc1
  -10.0%	8.4%	-11.4	-7.7	-3.1%	0.8	25.3%
> Cc1ccc(C)c2[nH]c(=O)c(CN(CC3CCCO3)C(=O)NC3CCCCC3)cc12 (stereo not given)
  8.5%	9.0%	12.1	-5.7	-6.1%	4.3	1.8%
> Cc1ccc(N=C2c3ccccc3C(=O)C2[N+](=O)[O-])cc1C (stereo not given)
  -3.2%	5.1%	2.2	-4.6	0.5%	1.6	-7.3%
> CC1CCc2c(sc(/N=C/N(C)C)c2C#N)C1 (stereo not given)
  3.8%	4.9%	-8.8	-1.2	·	-3.9	11.0%
> O=C(Nc1ccc(C(=O)NCc2ccccc2)cc1)C1=CSCCO1
  -5.0%	3.6%	16.2	·	-1.4%	·	-22.5%
> O=C(COC(=O)c1cncc(Br)c1)NC1CC1
  4.0%	15.5%	4.6	-0.4	-0.1%	-3.7	-57.2%[inhibitor]
> O=C(N/N=C/c1sc(N2CCOCC2)nc1-c1ccccc1)c1cccc(S(=O)(=O)N2CCOCC2)c1
  -24.6%	22.8%	-15.4	-14.3	1.3%	?	7.5%
> NC(=S)n1[nH]c(-c2ccc([N+](=O)[O-])cc2)c(N=Nc2ccc(O)cc2)c1=O
  -10.1%	-27.7%	-0.1	?	-1.8%	7.5	4.5%
> CC1(C)CC(=O)C(C=NCCCn2ccnc2)=C(O)C1
  -1.1%	2.9%	25.8	3.4	-0.7%	2.7	9.2%
> COc1ccccc1NC(=O)CCc1nc2ccccc2s1
  10.2%	19.0%	-6.5	0.0	·	3.5	2.5%[15.4 µM]
> Cc1c(C)c(C)c(CN2CCSCC2)c(C)c1C
  -15.9%	4.7%	26.3	2.6	0.9%	7.9	23.6%
> C/C(=N/NC(=O)C1COc2ccccc2O1)c1ccco1 (stereo not given)
  15.9%	11.0%	-0.8	11.9	-2.8%	3.1	-67.0%[inhibitor]
> CCn1c(=O)c2cc(C(=O)N3CCCC3)sc2c2ccccc21
  ·	2.5%	-4.7	·	·	-4.7	·
> O=C(CCl)NC(=O)NC12CC3CC(CC(C3)C1)C2
  -8.0%	4.7%	-11.1	1.4	1.0%	7.5	-17.2%
> COC(=O)C(CC(=O)c1ccccc1)CC(=O)c1ccccc1
  -9.5%	3.9%	-6.9	·	-0.9%	-1.7	3.5%
> O=C(c1ccccc1)C1CC=CCC1C(=O)c1ccccc1 (stereo not given)
  -6.3%	·	·	9.5	·	·	-12.4%
> CCCCNc1c(-c2ccc(SC(C)CC)c(OC)c2)nc2ccc(C)cn12 (stereo not given)
  ?	·	7.1	-10.8	4.3%	·	?
> Cc1cc(C)nc(N2CCC(C(=O)NNC(=O)Cc3ccccc3)CC2)n1
  5.4%	9.8%	13.7	0.4	2.9%	5.2	-12.8%
> COc1ccc(-c2cc(Nc3ccccc3NC(=O)C(F)(F)F)n(CCC#N)n2)cc1
  5.6%	9.0%	12.2	-3.9	0.6%	4.7	12.6%[15.4 µM]
> COc1ccc(CCNC(=O)c2ccc(N3CCCC3=O)cc2)cc1OC
  1.2%	11.8%	1.7	-4.0	1.7%	0.3	-19.9%
> COCCN(C(=O)COC(=O)COc1ccc(Cl)c(C)c1)c1c(N)n(Cc2ccccc2)c(=O)[nH]c1=O
  -1.3%	4.4%	1.9	5.8	-1.2%	1.9	-37.7%[inhibitor]
> CCOc1cc(S(=O)(=O)n2cnc(C)c2)ccc1Cl
  17.3%	11.3%	0.1	0.0	·	1.6	-29.5%
> O=C(O)CCC(=O)Nc1ccc(-c2csc(Nc3cccc4ccccc34)n2)cc1
  3.5%	·	-0.4	-6.6	-14.0%	·	-1.2%
> CC1CCCCC12NC(=O)N(CC(=O)OCc1ccc(Br)cc1)C2=O (stereo not given)
  -20.7%	·	-4.7	·	2.5%	·	-2.2%
> COC(=O)c1cn(-c2ccc(F)cc2)c(=O)c2ccccc12
  -7.9%	17.2%	2.4	22.6	·	-4.0	19.0%[15.4 µM]
> O=c1c2[nH]c3ccccc3c2ncn1Cc1ccccn1
  35.4%[activator]	20.9%	·	8.6	28.2µM*	-0.8	-15.8%
> CC(NC(=O)CC1CCCCC1)c1ccccc1 (stereo not given)
  -1.3%	5.3%	-26.7	6.7	0.9%	1.2	-0.1%[15.4 µM]
> O=C(Nc1ccnn1C1CCN(C/C=C/c2ccccc2)CC1)C1CCCC1
  -0.8%	-0.1%	-0.3	24.8	-0.8%	·	32.6%
> C=CCNC(=O)c1c(N)n(-c2ccc3c(c2)OCO3)c2nc3ccccc3nc12
  10.6%	7.0%	-3.1	4.5	-10.3%	1.6	?
> COP(=O)(OC)c1nc(-c2cccc3ccccc23)oc1N1CCOCC1
  -1.7%	-11.7%	7.7	-12.1	-1.0%	1.9	10.6%[15.4 µM]
> O=C(NNC(=S)NC(=O)c1ccc(Br)cc1)c1ccc([N+](=O)[O-])cc1
  -3.8%	-12.0%	0.0	·	0.0%	0.6	?
> COc1cccc(NC(=O)CN2CCC(NC(=O)c3ccccc3C)CC2)c1
  ·	·	·	-6.6	2.0%	·	-37.5%[inhibitor]
> C[C@H](CO)N1C[C@H](C)[C@H](CN(C)C(=O)C2CC2)OCc2cnnn2CCCC1=O
  ·	·	·	5.8	-0.1%	·	-23.0%
> COc1ccc(/C=C/C(=O)NC(=S)NNC(=O)Cc2cccs2)cc1
  6.2%	5.7%	4.0	-23.0	1.5%	-3.0	2.3%
> COc1ccccc1N1C(=NC(=O)CCc2ccccc2)SC2CS(=O)(=O)CC21 (stereo not given)
  8.9%	3.8%	3.9	3.7	-0.4%	1.9	?
> O=C(NCCCN1CCCC1=O)c1ccc(Cl)c(S(=O)(=O)N2CCCCC2)c1
  2.1%	·	-2.5	-6.6	-2.4%	·	-33.8%[inhibitor]
> COc1ccc(NC(=O)CCC(=O)c2ccc(C(C)C)cc2)cc1
  2.0%	0.6%	-5.3	-18.3	-2.9%	4.2	8.3%
> Cc1ccc(-c2nc(S(=O)(=O)c3ccc(F)cc3)c(SCC(=O)NCC3CCCO3)o2)cc1 (stereo not given)
  -1.8%	-6.8%	-33.5	5.3	-16.0%	-0.8	-19.1%

The list continues:
Sequence of screens – gsp antag	Sfp inh	TRPV1 potentiator	CtBP-E1A inh	ClpP mod	Menin-MLL FL inh	gsp agonist
> CN(C)CCCN=Cc1c(O)n(Cc2ccc3c(c2)OCO3)c(=O)c2ccccc12
  ·	-1.8%	4.0	·	·	-3.7	·
> CN(C)c1ccc(/C=N/NC(=O)CCc2c[nH]c3ccccc23)cc1
  -6.4%	6.9%	13.5	-11.7	·	-0.1	4.2%[15.4 µM]
> O=C(Cn1c(=O)c2cccn2c2ccc(F)cc21)NCCCN1CCN(c2ccccc2F)CC1
  6.7%	14.8%	16.3	-5.1	-18.0%	·	-53.0%[inhibitor]
> c1ccc(SCc2nc3ccccc3[nH]2)cc1
  7.0%	6.3%	-9.9	35.3	0.6%	0.4	-1.8%
> O=C(NC1CCCc2ccccc21)c1cccnc1 (stereo not given)
  7.3%	8.8%	-6.4	3.6	1.9%	-3.3	-31.1%[inhibitor]
> O=C(Cn1cnc2ccccc2c1=O)c1cccs1
  8.3%	11.0%	-0.8	-2.1	-2.1%	1.0	-4.3%
